AID923: qHTS Assay for Allosteric/Competitive Inhibitors of Caspase-1: Spectroscopic Profiling in AFC Spectral Region | Potency, µM (doses to about 57.5 µM), without a hit: at the top dose fluorescence increase, usual class: activators | 75,000 compounds, 1.1% hits | compound fluorescence, AFC spectral region (405/520 nm); almost no hit is shown here; active means well fitted activation curve with a large enough effect; inconclusive means small, poorly fitted or top-dose-only effect;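 further: potency means the concentration at half of the fitted maximal effect; 0% is about no effect; scaled to a free AFC standard on each plate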
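Baseline compound fluorescence (AFC region, 405 nm ex/520 nm em) taken from the intercept of kinetic reads with 50 nM caspase-1 and 5 uM Ac-WEHD-AFC; normalized to an on-plate AFC standard curve; compounds titrated up to 57 uM.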
A647 fluor: compound autofluorescence in A647 spectral region | max dye-equivalent concentration, M | Compound fluorescence, A647 channel (570/671 nm), Tris buffer | 59,000 tested, under 10 active; active means above 1 µM dye equivalent; inconclusive means 0.1 to 1 µM; inactive means 0.1 µM or less;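 further: values scaled relative to a standard on each plate; highest value over a series up to 38 µM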
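Buffer was dispensed, compounds and Alexa 647 standards were pin-transferred, and plates sat 15 min at room temperature. Intensity at 570/671 nm was then converted to dye-equivalent concentration using the plate's A647 standard curve.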
Resorufin fluor: resorufin region autofluorescence; Compound fluorescence, resorufin region 547/598 nm, buffer; active compounds read high; max dye-equivalent concentration, M; 59,000 compounds, 0.04% hits; active = above 10 nM dye equivalent; inconclusive = 1 to 10 nM; inactive = 1 nM or less; a few of its hits are not listed in these tables; further: highest value over a series up to 38 µM
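Intrinsic fluorescence profiled in the resorufin window (ex 547 nm, em 598 nm) after 15 min at room temperature in pH 8.0 Tris buffer (100 mM); responses normalized against a six-point resorufin standard series as dye-equivalent concentration.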
TSHR ag: agonists of human thyroid stimulating hormone receptor; P16473; HEK293-CNG-TSHR cells (CNG channel as cAMP sensor), membrane potential dye, cAMP; Potency, µM (series often up to 57.1 µM), without a hit: at the highest dose activation, hits mostly activators; 73,000 compounds, 0.48% hits; AID 926; active = well fitted activation curve of enough size with the parental cells flat; inconclusive = any curve in the parental cells; inactive = parental cells flat and receptor cells flat or falling; further: potency means the concentration at half of the fitted maximal effect; % of control where 0% means no effect; weak receptor curves with flat parental cells got no call and are not listed
Target sequence (P16473 whole entry, looked up): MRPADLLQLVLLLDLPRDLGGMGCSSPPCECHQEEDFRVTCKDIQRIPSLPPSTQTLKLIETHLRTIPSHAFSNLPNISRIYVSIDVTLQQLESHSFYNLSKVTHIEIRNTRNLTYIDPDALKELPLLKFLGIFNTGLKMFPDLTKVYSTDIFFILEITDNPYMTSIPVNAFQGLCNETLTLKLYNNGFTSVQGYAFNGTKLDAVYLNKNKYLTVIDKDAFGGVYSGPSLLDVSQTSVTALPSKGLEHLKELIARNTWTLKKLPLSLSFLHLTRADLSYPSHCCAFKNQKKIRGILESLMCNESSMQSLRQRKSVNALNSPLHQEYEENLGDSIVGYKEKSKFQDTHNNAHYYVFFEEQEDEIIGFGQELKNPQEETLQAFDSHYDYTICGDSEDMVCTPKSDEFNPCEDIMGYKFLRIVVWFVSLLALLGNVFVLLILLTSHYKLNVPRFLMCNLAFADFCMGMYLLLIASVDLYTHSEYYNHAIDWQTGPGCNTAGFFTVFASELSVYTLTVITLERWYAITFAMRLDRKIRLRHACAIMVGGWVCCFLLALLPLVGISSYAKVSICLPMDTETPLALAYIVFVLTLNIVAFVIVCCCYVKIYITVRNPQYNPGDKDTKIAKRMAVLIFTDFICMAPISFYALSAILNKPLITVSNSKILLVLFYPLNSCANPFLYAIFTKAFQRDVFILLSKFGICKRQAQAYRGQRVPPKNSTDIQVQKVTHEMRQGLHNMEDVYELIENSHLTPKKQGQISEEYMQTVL
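HEK 293 cells stably expressing TSHR and a cAMP-gated CNG channel; parental CNG-only cells as counterscreen. Cells preloaded 60 min with membrane potential dye plus 100 uM RO 20-1724, then compound 30 min; fluorescence read at 590 nm.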
A488 autofl: compound autofluorescence in A488 spectral region; compound autofluorescence, A488 spectral region, dye equivalency; active compounds read high; max dye equivalency, M; 59,000 compounds, 0.1% hits; AID 591; active = above 10 nM dye equivalent; inconclusive = 1 to 10 nM; inactive = 1 nM or less; about half of its hits are not listed in these tables;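 further: highest value over a series up to 38 µM; compound alone in buffer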
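Autofluorescence read at ex 480/em 540 nm after 15 min RT in 100 mM Tris pH 8.0; compound signal normalized to A488 standard series on each plate, reported as dye-equivalent concentration at each test concentration.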
An asterisk follows results filed as active; i = inactive; ? = inconclusive; / = no result given; & = joins results of further samples; [ ] = remark or other dose. Only part of the results is shown (hit frequency here may not be typical).

SMILES | AID923 | A647 fluor | Resorufin fluor | TSHR ag | A488 autofl
CCCC1=C(C(=O)OCC)C(c2ccccc2OCC)NC(=O)N1C (centres undefined) | -1.3% | / | / | 26% | /
CCOC(=O)C1CCN(C(c2cc3ccc(C)cc3[nH]c2=O)c2nnnn2C2CCCCC2)CC1 (centres undefined) | 0.1% | 4.2e-09 | i | 35% | i
O=C(Oc1ccccc1C(=O)Oc1ccccc1)c1ccco1 | 2.1% | / | / | ? | /
CC1=C(C(=O)N2CCc3ccccc32)C2(CCC(C)CC2)OC1=O (centres undefined) | 1.4% | 1e-09 | i | ? | i
O=C(CCCn1c(=O)[nH]c2cc(Cl)ccc2c1=O)NCCN1CCN(c2ccccc2)CC1 | -1.1% | 1e-09 | i | ? | i
Cc1ccc2c(Cl)cc(Cl)c(OCc3c(C)noc3C)c2n1 | -1.2% | 1e-09 | i | ? | i
Cc1ccc(S(=O)(=O)N[C@H](CN)C(=O)O)cc1 | 2.5%[11.5 µM] | 1.1e-08 | i | 0%[11.4 µM] | i
CCc1nnc(NC(=O)NCN2C(=O)C3C4C=CC(C4)C3C2=O)s1 (centres undefined) | 0.9% | 1.7e-09 | i | ? | i
CC1CN(CCC(=O)Nc2ccc3c(c2)OCO3)CC(C)O1 (centres undefined) | 0.2% | 2.9e-08 | i | ? | i
COc1ccc(C2NC(=O)NC(O)(C(F)(F)F)C2C(=O)c2ccc(F)cc2)cc1 (centres undefined) | / | 1.1e-09 | i | / | i
CS(=O)(=O)N1CCN(C(=O)c2c(F)cccc2F)CC1 | -0.2% | 2.5e-08 | i | -1% | i
Clc1ccc2nc(CSc3nnc(-c4c[nH]c5ccccc45)o3)cn2c1 | -1.7% | 1.1e-08 | i | 7% | i
CC(C)Cn1c(=O)n(C)c(=O)c2[nH]cnc21 | -3.1%&-3.3%&-2.1% | 1e-09 | i | / | i
CCCC(=O)N=C1SC2CS(=O)(=O)CC2N1c1ccc(CC)cc1 (centres undefined) | -0.6% | 3.3e-08 | i | -2% | i
COc1ccc(-c2nsc3c(N4CCCC4)ncnc23)cc1 | 1.1% | 3.1e-08 | i | -3% | i

The last 5 entries of the section above come first, to join the parts:
SMILES | AID923 | A647 fluor | Resorufin fluor | TSHR ag | A488 autofl
CS(=O)(=O)N1CCN(C(=O)c2c(F)cccc2F)CC1 | -0.2% | 2.5e-08 | i | -1% | i
Clc1ccc2nc(CSc3nnc(-c4c[nH]c5ccccc45)o3)cn2c1 | -1.7% | 1.1e-08 | i | 7% | i
CC(C)Cn1c(=O)n(C)c(=O)c2[nH]cnc21 | -3.1%&-3.3%&-2.1% | 1e-09 | i | / | i
CCCC(=O)N=C1SC2CS(=O)(=O)CC2N1c1ccc(CC)cc1 (centres undefined) | -0.6% | 3.3e-08 | i | -2% | i
COc1ccc(-c2nsc3c(N4CCCC4)ncnc23)cc1 | 1.1% | 3.1e-08 | i | -3% | i
Cc1nnc2n(C3CCCCC3)c(=O)c3c4c(sc3n12)COC(C)(C)C4 | / | 3.6e-09 | i | / | i
Cc1ccc(NC(=O)C2CCCN(S(=O)(=O)c3cccs3)C2)cc1 (centres undefined) | 0.8% | 2.9e-09 | i | 11% | i
CN(C)S(=O)(=O)N1CCCN(S(=O)(=O)N(C)C)CC1 | -2.7% | 1.4e-08 | i | -4% | i
CCCCN(CC)S(=O)(=O)c1ccc(C(=O)Nc2nnc(-c3cccs3)o2)cc1 | -3.0% | 6e-09 | i | 17% | i
CCOc1ccc(S(=O)(=O)NCc2csc(C)n2)cc1 | -0.4% | 1e-09 | i | 6%[11.4 µM] | i
O=C(c1ccc(S(=O)(=O)NCC2CCCO2)cc1)N1CCc2ccccc21 (centres undefined) | -2.4% | 1e-09 | i | 4% | i
CCCc1nnc(SCCSc2nnc(CCC)n2N)n1N | -1.9% | 3.8e-08 | i | -1% | i
O=c1c(-c2ccc(F)cc2)nc2cnc(Oc3ccccc3)nc2n1C[C@H]1CCCO1 | ? | 1e-09 | i | -3% | i
COCc1cc(C)nc(N2CCOCC2)c1C#N | -1.0% | / | / | -2% | /
COC(=O)c1ccc(CSc2nnc(NCc3ccccc3)s2)o1 | -7.0% | 1.5e-08 | i | 6% | i
CCN1CCC[C@H]1CNC(=O)c1c(OC)ccc(Br)c1OC | 0.6% | 7.2e-09 | i | 1% | i
c1coc(-c2nnc(SCc3cn4ccccc4n3)o2)c1 | -1.3% | 1e-09 | i | 1% | i
O=C(c1cc(-c2cccs2)on1)N1CCc2ccccc2C1 | 1.2% | 5.6e-09 | i | ? | i
COc1ccc(CCN(C)CCC[C@@](C#N)(c2cc(OC)c(OC)c(OC)c2)C(C)C)cc1OC | 0.3% | 3.7e-08 | i | / | i
c1nnn(C23CC4CC(CC(C4)C2)C3)n1 | 3.4% | 4e-08 | i | 17% | i
COC(=O)c1ccccc1NC(=O)C1CCN(S(C)(=O)=O)CC1 | -0.7% | 1.7e-09 | i | 8% | i
CCOc1ccc(N2CCCn3c2nc2c3c(=O)n(CCc3ccccc3)c(=O)n2C)cc1 | -0.5% | 2.6e-08 | i | ? | i
CCOC(=O)c1c(C)nn(Cc2ccccc2)c1N | 1.0% | 2.6e-08 | i | 3% | i
COC(C)(C)[C@]12CC(O)(c3ccccc3)ON1[C@H]1CCCCC1N2O (some centres undefined) | -0.8% | 3.3e-08 | i | ? | i
CCCCCNC(=O)C(C)NS(=O)(=O)c1ccc(OC)cc1 (centres undefined) | -0.8% | 7.2e-09 | i | -10% | i
COCCNC(=O)C1CCCN(c2ncccn2)C1 (centres undefined) | -1.2% | 6.5e-09 | i | 1% | i
Cc1cc(C(=O)CSC(=S)SC(C)(C)C)ccc1Cl | 1.5%[11.5 µM] | 4e-08 | i | -3%[11.4 µM] | i
Cc1cc(=O)n2c(ccc3ccccc32)c1C#N | 1.0% | 3.6e-08 | i | 0% | i
COc1ccccc1CNC(=O)CN1C(=O)C(C)N(c2ccc(C)cc2)C1=O (centres undefined) | -1.7% | 2e-09 | i | -6% | i
CCC(C)Sc1nc2c(cnn2-c2ccccc2)c(=O)[nH]1 (centres undefined) | 3.2% | / | / | 1% | /
O=C(COC(=O)c1ccccn1)Nc1ccccc1Cl | 0.8% | 3.6e-08 | i | -5% | i
O=C(Cn1nnc(-c2ccc(Cl)cc2)n1)NC1CC2CCC1C2 (centres undefined) | -1.7% | 1e-09 | i | 12% | i
CCOC(=O)N1CCN(C(=O)CN(c2ccc(Cl)c(C(F)(F)F)c2)S(C)(=O)=O)CC1 | 0.8% | / | / | 15% | /
Cc1sc2nc(C(C)C)nc(SCC(=O)NCc3ccco3)c2c1C | 0.1% | 1e-09 | i | ? | i
Cc1ccc2c(CSc3nnc(C4CC4)n3N)cc(=O)oc2c1 | 0.2% | 4e-08 | i | 0% | i

Compound profiles, from the list above. Order of values: AID923, A647 fluor, Resorufin fluor, TSHR ag, A488 autofl
CCOC(=O)c1c(C)nn(Cc2ccccc2)c1N in the list: 1.0%, 2.6e-08, i, 3%, i
COC(C)(C)[C@]12CC(O)(c3ccccc3)ON1[C@H]1CCCCC1N2O (some centres undefined) in the list: -0.8%, 3.3e-08, i, ?, i
COCCNC(=O)C1CCCN(c2ncccn2)C1 (centres undefined) in the list: -1.2%, 6.5e-09, i, 1%, i
CCCCCNC(=O)C(C)NS(=O)(=O)c1ccc(OC)cc1 (centres undefined) in the list: -0.8%, 7.2e-09, i, -10%, i

Next section
SMILES | AID923 | A647 fluor | Resorufin fluor | TSHR ag | A488 autofl
CC(=O)N1CCc2cc(S(=O)(=O)NC(CC(C)C)C(=O)Nc3cc(C)ccn3)ccc21 (centres undefined) | -2.2% | 6.1e-09 | i | 0% | i
CC(C)Cc1nnc(NC(=O)CSc2ncn[nH]2)s1 | 0.2% | 1.5e-09 | i | -1% | i
CC[C@H]1NC(=O)c2cc(S(N)(=O)=O)c(Cl)cc2N1 | -0.4%[25.7 µM] | 2.5e-08 | i | -8%[25.6 µM] | i
CCCC(=O)C1=C(N(C)c2ccccc2)CC(C)(C)C(C(=O)OC)C1=O (centres undefined) | -0.5% | / | / | ? | /
COc1cc(/C=N/n2nnnc2N)ccc1O | / | 4.9e-08 | i | / | i
Cc1cc(C)n(-c2nc(NCCO)c3c4c(sc3n2)CCCC4)n1 | -1.4% | 1.6e-08 | i | 16% | i
O=C(CCS(=O)(=O)c1ccc(Br)s1)N1CCc2ccccc21 | -0.6% | 1.4e-08 | i | 12% | i
Cc1ccc(N(C(C)C(=O)Nc2ccc3c(c2)OCO3)S(C)(=O)=O)cc1 (centres undefined) | 0.7% | 1e-09 | i | -9% | i
CCOC(=O)c1ccc(CS(=O)c2ccc(Cl)cc2)o1 (centres undefined) | 2.9% | 1e-09 | i | 2% | i
Cc1ccc(-c2nnc3ccc(SC(C)C(=O)O)nn23)cc1 (centres undefined) | -0.9% | / | / | ? | /
O=C(c1cc2ccccc2c(=O)o1)N1CCCc2ccccc21 | 1.6% | 1e-09 | i | 15% | i
CCOC(=O)C1(Nc2nccs2)Sc2ccccc2NC1=O (centres undefined) | -1.1% | 1e-09 | i | 4% | i
OC1CCCN(c2c3c(nc4cc(-c5cccc(Cl)c5)nn24)CCC3)C1 (centres undefined) | 3.7% | 4.7e-08 | i | -9% | i
Cc1ccc(C)c(NC(=O)C2CC(O)CN2C(=O)OC(C)(C)C)c1 (centres undefined) | 1.0% | 1e-09 | i | -5% | i
Cc1ccc(NC(=O)CSc2nnc(Cn3c(=O)sc4ccccc43)n2C)cc1 | 0.5% | / | / | 4% | /
CC(C)(C)n1nnnc1C(c1cccc(C#N)c1)N1CCCc2ccccc21 (centres undefined) | -0.9% | 5.1e-09 | i | ? | i
O=C(C1CCN(S(=O)(=O)N2CCC3(CC2)OCCO3)CC1)N1CCOCC1 | -0.7% | 1.5e-08 | i | 6% | i
CN1CCN(Cc2cc(COCc3ccccc3)c3cccnc3c2O)CC1 | 0.5% | 1e-09 | i | 4% | i
COc1ccc(NC(=O)Nc2ncn(Cc3cccc(C(F)(F)F)c3)n2)cc1OC | 0.5% | 1e-09 | i | / | i
CCOC(=O)c1[nH]c2ccc(OC)cc2c1NC(=O)c1nonc1C | 2.8% | 1e-09 | i | ? | i
Cc1ccc(O)c(-c2cc(C(=O)Nc3ccc(S(=O)(=O)N4CC(C)OC(C)C4)cc3)[nH]n2)c1 (centres undefined) | -1.0% | 7.1e-09 | i | -18% | i
COc1cc(Sc2ccc(C)cc2)c(OC)cc1N | -0.4% | 2.8e-08 | i | -8% | i
CCOc1ccc(N2CC(C(=O)NCc3ccc(F)cc3)CC2=O)cc1 (centres undefined) | 0.8% | 6.4e-09 | i | -1% | i
CC(NC(=O)C1CCC1)c1ccc2c(c1)OCO2 (centres undefined) | 1.4% | / | / | -1% | /
C=CCSC1=N/C(=C\c2ccc(C)o2)C(=O)S1 | 5.2% | / | / | 5% | /
N#CC1=C(N)NC(SCc2ccccc2)=C(C#N)C12CCCCC2 | -2.2% | / | / | -22%[11.4 µM] | /
Cc1cc(C)c(NC(=O)CS(=O)CC(=O)NCC2CCCO2)c(C)c1 (centres undefined) | 1.8% | 1e-09 | i | 0% | i
CCNc1nc(NCC)nc(Nn2cnnc2)n1 | 1.5% | / | / | 3% | /
Cc1ccc(N2C(=O)c3ccccc3C2Nc2cccnc2)nc1 (centres undefined) | 1.9% | / | / | 16% | /
FC(F)(F)c1ccccc1Nc1nccs1 | 0.8% | 1e-09 | i | 3% | i
CNc1nc(-c2ccccc2CN(C)C)nc2ccccc12 | 3.3% | 3.8e-09 | i | ? | i
CCC(C)NC(=O)c1cnn2c1NC(c1ccc3c(c1)OCO3)CC2C(F)(F)F (centres undefined) | -2.1% | 1e-09 | i | 9% | i
C[C@H]1NC(=O)NC1=O | 0.7%&-2.2%[25.7 µM] | 4.6e-09&5e-08 | i | ? | i

Compound activity as filed in PubChem.
